Menin MLL FP FL: displaces fluorescein MLL peptide from human menin; Fluorescence polarization, fluorescein-MLL peptide displacement from menin; FP activity change, % at 61.4 µM; 290,000 tested, under 10 active; inconclusive = falling polarisation curve, or a change in total fluorescence; inactive = total fluorescence flat and polarisation flat or rising; no compound was filed as active; the % refers to the polarisation; negative = inhibition;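 note: % of control where 0% means no effect; inhibitors lower the polarisation; unlabelled MLL peptide was the positive control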
gsp antagonist: antagonizes gsp, the McCune-Albright syndrome mutation. gsp-mutant cells, cAMP HTRF, 30 min; control for the full effect not named in the record. Potency, µM (series often up to 76.9 µM), inactives show top-dose activity change, negative = inhibition, most hits filed as inhibitors. actives 0.4% (n = 340,000); active = falling curve of any shape with a large fitted effect; inconclusive = falling curve, mostly with a smaller effect; inactive = flat or rising curve; cell line not stated here;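 note: intracellular cAMP measured with PDE inhibitor Ro 20-1724 present during compound exposure; potency is the fitted concentration of half-maximal effect; % is set by controls: 0 for no effect and ±100 for the full control effect; nearly all actives have a fitted effect of over 65% in size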
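G418-selected cells were plated in DMEM/10% FBS for 16-24 h at 37C, then treated with compounds plus the PDE inhibitor […] (300 uM solution added) for 30 min at 37C. Intracellular cAMP was measured by HTRF after 30 min lysis at room temperature.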
CtBP-E1A inh: CtBP/E1A binding inhibition. AlphaScreen GST-E1A/His-CtBP binding, 1536-well; stronger effect = lower value; control for the full effect not named in the record. activity change, % (test concentration not listed). actives 0.49% (n = 340,000); in the data active means activity change below about -65%; inconclusive means about -30% to -65%; inactive means above about -30%; note: % is set by controls: 0 for no effect and ±100 for the full control effect; compound concentration not given in the record
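In 5 uL wells, 23 nL compound meets equimolar GST-E1A and His-CtBP (5X stock 125 nM each) for 2 h, 37 °C. Beads (5X, 50 ug/mL) then 1 h, 37 °C, dark.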
gsp agonist: agonists of gsp mutant (McCune-Albright syndrome) | actives 0.13% (n = 340,000) | AID 624287 | gsp mutant cells, cAMP HTRF, 30 min; control for the full effect not named in the record | Potency, µM (highest dose often 76.9 µM), for inactives: at the highest dose activation (cAMP increase), hits mostly activators; active = well fitted activation curve with a large enough effect; inconclusive = small, poorly fitted or top-dose-only effect, or another doubt; inactive = no such curve, though single readings can be large or run the other way; cell line not stated here;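 note: phosphodiesterase inhibitor Ro 20-1724 added with compounds to block cAMP breakdown; potency is the fitted concentration of half-maximal effect; nearly all actives have a fitted effect of over 60% in size; about a fifth of the inactives were tested at one dose only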
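Cells in DMEM/10% FBS with G418 were pretreated with compounds in DMSO plus […] (300 uM stock) for 30 min at 37C. cAMP was measured by HTRF (cAMP-d2 plus anti-cAMP antibody-K) after 30 min at room temperature.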
ClpP mod: qHTS Assay for Activators of ClpP; ATP-dependent Clp protease proteolytic subunit (Bacillus subtilis (strain 168)), P80244; purified B. subtilis ClpP, FRET peptide cleavage, 20 min; Potency, µM (top dose mostly 57.5 µM), inactives show at the top dose activity change, negative = active; actives 1.9% (n = 340,000); active = well fitted falling curve with a large enough effect; inconclusive = small, poorly fitted or top-dose-only effect; inactive = no such curve, though single readings can be large or run the other way; note: potency is the fitted concentration of half-maximal effect; the source files actives as falling curves though it sought activators and does not explain the sign; nearly all actives have a fitted effect of over 65% in size; many hits overshoot -100%
Target sequence (P80244 whole entry, looked up): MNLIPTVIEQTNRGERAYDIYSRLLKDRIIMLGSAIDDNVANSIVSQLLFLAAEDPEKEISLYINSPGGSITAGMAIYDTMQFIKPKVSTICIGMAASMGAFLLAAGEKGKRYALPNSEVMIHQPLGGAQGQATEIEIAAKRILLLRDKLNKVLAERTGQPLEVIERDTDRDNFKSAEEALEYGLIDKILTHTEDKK
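Buffer: 100 mM Tris/HCl pH8, 100 mM KCl, 0.05% low protease BSA, 2.5% glycerol, 0.01% Tween-20. ClpP 10 microg/mL final; 20 min RT; delta FRET normalized to ADEP and DMSO controls.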
Sfp PPTase inh: inhibitors of Bacillus subtilis Sfp phosphopantetheinyl transferase; AID 1490; Biochemical Sfp PPTase activity, qHTS; Potency, µM, inactives show max response, negative = inhibition, hits mostly inhibitors; actives 3.5% (n = 310,000); Q9F4F7; active = well fitted inhibition curve with a large enough effect; inconclusive = small, poorly fitted or top-dose-only effect, or another doubt; inactive = no such curve, though single readings can be large or run the other way;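 note: the enzyme is Sfp with the accession as filed and its product quenches rhodamine fluorescence; potency is the fitted concentration of half-maximal effect; 0% = enzyme reaction without inhibitor and -100% = no enzyme wells; top concentration of the series not given in the record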
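Sfp 15 nM + cpd, 15 min RT; start w/ rhodamine-CoA 5 uM, BHQ-2-YbbR 12.5 uM (final); 50 mM Hepes pH 7.6, 10 mM MgCl2, 0.01% NP-40, 0.01% BSA; read 525/598 nm at 0 and 30 min.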
TRPV1 potentiator: enhances activation of the human vanilloid receptor TRPV1. Q8NER1. TRPV1-expressing cells, Fluo-8 calcium influx, capsaicin EC20 potentiation; host cell line not named in the record; control for the full effect not named in the record. potentiation, % at 8.33 µM. actives 0.02% (n = 320,000). AID 540277; active means potentiation above 80%; inconclusive means 30% to 80%; inactive means below 30%; note: 0% is about no effect
Target sequence (Q8NER1 whole entry, looked up): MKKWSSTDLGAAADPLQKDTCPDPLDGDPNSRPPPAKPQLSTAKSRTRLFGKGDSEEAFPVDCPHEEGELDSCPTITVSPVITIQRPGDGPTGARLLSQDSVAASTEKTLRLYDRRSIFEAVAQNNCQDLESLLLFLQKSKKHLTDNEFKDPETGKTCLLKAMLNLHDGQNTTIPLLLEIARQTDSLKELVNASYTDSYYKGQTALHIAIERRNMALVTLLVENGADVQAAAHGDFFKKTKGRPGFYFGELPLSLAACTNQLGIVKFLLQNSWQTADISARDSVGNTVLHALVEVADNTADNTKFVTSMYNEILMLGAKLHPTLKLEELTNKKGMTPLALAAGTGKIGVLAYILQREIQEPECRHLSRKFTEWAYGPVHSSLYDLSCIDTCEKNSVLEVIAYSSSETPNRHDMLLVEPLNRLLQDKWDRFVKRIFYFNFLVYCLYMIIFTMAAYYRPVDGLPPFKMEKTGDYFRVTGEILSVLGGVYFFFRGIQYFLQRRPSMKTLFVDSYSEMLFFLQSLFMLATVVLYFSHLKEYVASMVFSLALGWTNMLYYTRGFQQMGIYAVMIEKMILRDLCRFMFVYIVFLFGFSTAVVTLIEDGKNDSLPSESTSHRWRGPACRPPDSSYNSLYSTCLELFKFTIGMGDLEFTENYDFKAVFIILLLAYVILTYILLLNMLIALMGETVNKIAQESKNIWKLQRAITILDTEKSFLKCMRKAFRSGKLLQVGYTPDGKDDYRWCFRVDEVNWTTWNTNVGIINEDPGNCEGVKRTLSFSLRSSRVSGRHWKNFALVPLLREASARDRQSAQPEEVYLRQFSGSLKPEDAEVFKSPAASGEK
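TRPV1-expressing cells were cultured overnight at 35.5C and loaded with Fluo-8 calcium dye for 40 to 90 min at room temperature. After a 10 s baseline, compound was added and calcium influx was read kinetically for 3 min (ex 480/em 520 nm).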
Numbers without * were called inactive; ? = inconclusive; . = not tested or not shown; [ ] = remark or other dose.

SMILES | Menin MLL FP FL | gsp antagonist | CtBP-E1A inh | gsp agonist | ClpP mod | Sfp PPTase inh | TRPV1 potentiator
CC(=O)Nc1ccc(NC(=O)C(=O)NCC(c2ccco2)N2CCc3ccccc3C2)cc1 (configuration not stated) | . | 13.1% | 9.2 | -25.6% | -7.2% | . | 4.5
N#Cc1ccc(-c2csc(NC(=O)C3CC3)n2)cc1 | 2.4 | 1.0% | 7.5 | 37.6% | 4.8% | -6.8% | .
O=C(OCC(=O)c1c[nH]c2ccccc12)c1cccc([N+](=O)[O-])c1 | . | -4.7% | -11.1 | 12.3% | -0.1% | . | -5.2
O=C(C[n+]1ccc(C(=O)NCc2ccccc2)cc1)c1ccc(Cl)cc1 | . | 6.9% | -4.7 | -23.4% | -1.7% | 2.5% | 12.1
CN(Cc1ccccc1)S(=O)(=O)c1ccc(S(=O)(=O)N(Cc2ccc(F)cc2)C2CCCC2)cc1 | -0.2 | -6.2% | 3.0 | 0.2% | -0.6% | 11.1% | -22.5
N#CCCN(Cc1cccnc1)C(=S)NCc1ccco1 | 2.3 | 3.2% | 5.9 | -4.3% | 1.7% | 25.1µM* | -0.9
COc1c(N2CCN(C(=S)Nc3ccccc3F)C(C)C2)c(F)cc2c(=O)c(C(=O)O)cn(C3CC3)c12 (configuration not stated) | -0.2 | -14.9% | 4.5 | -4.1%[15.4 µM] | . | 2.4% | 6.6
CSc1cnc2c(=O)[nH]c(=O)n(C)c2n1 | -2.2 | 12.4% | -8.3 | -1.7% | -2.0% | 13.9% | -12.3
CNS(=O)(=O)c1cccc(C(=O)OCC(=O)c2cc3ccccc3o2)c1 | 0.0 | -3.6% | 1.3 | 3.6%[15.4 µM] | -14.6% | 4.8% | -6.2
COc1ccc2[nH]c(=O)c(CN(C(C)=O)c3ccc(C)cc3C)cc2c1 | 0.5 | 5.1% | 9.9 | 0.1%[15.4 µM] | -2.5% | 18.5% | 5.2
CCN(CC)C(=O)Cc1ccccc1 | -0.3 | 12.2% | 18.6 | 5.4% | -0.6% | 7.0% | -2.7
CC(C)(C)C(=O)Nc1cccc(-c2ncon2)c1 | -1.9 | -3.1% | . | -34.8%[inhibitor] | 1.6% | 26.6% | 6.1
Cc1ccc(-n2nc(C)c(C(C)(O)C(F)(F)F)c2N)cc1 (configuration not stated) | 5.7 | -17.6% | -1.9 | -62.8%[inhibitor] | -3.7% | 3.8% | 1.0
CCCCC(=O)Nc1ccc(N2CCN(C(=O)c3ccco3)CC2)cc1 | . | 1.3% | -1.8 | 12.1%[15.4 µM] | -2.7% | 23.6% | -11.9
CCC(=O)Nc1cccc(NC(=O)CSc2nnc(C(C)C)n2CC)c1 | 7.0 | 2.4% | -2.1 | -29.6% | -1.6% | 1.6% | -11.1
O=C(c1cc2ccccn2n1)N1CCCC1 | 2.8 | . | . | . | . | 18.9% | 7.0
O=C(CSCc1c(F)cccc1Cl)NCC1CCCO1 (configuration not stated) | 1.2 | 9.5% | 8.8 | 31.7% | 1.0% | 25.8% | 2.5
CC1(C)Cc2c(sc3nnn(Cc4ccccc4)c(=O)c23)CO1 | -0.2 | -1.4% | 5.5 | ? | -3.7% | -20.8% | -8.5
Cc1cccc(NNC(N)=S)c1C | 3.0 | 8.0% | -3.6 | -32.7%[inhibitor] | 0.3% | 39.8µM* | -1.1
COCc1cc(C)nc(SCc2ccc(Br)cc2)c1C#N | . | -0.1% | 65.4 | -6.0%[15.4 µM] | . | . | .
O=C(O)COc1ccc(Cl)cc1CO | 3.0 | -0.7% | 27.3 | -23.0% | 0.4% | 0.1% | -3.6
CN(C)C1=NC[C@H](Cc2ccccc2)N1CCCC1CCCCC1 | . | 5.1% | 0.5 | . | 1.7% | . | 8.7
COc1ccc(CC(=O)NCc2n[nH]c(=S)n2-c2ccccc2OC)cc1 | -3.8 | 10.7% | 7.3 | 34.3% | 0.5% | 11.0% | -8.7
O=C(CCc1ccccc1)Nc1ccc2c(c1)OCO2 | 1.7 | 10.9% | -1.1 | -1.3%[15.4 µM] | -1.9% | 7.5% | -27.0
CCOC(=O)C1=CC[C@H]2c3c(c4ccccc4n3C)C(=O)C1N2C | . | -0.7% | 5.2 | 3.7% | -0.3% | . | -0.1

Additional entries follow.
SMILES | Menin MLL FP FL | gsp antagonist | CtBP-E1A inh | gsp agonist | ClpP mod | Sfp PPTase inh | TRPV1 potentiator
N#C/C(=C\c1cccnc1)c1ccccc1[N+](=O)[O-] | -0.4 | 13.9% | -5.4 | 8.6% | . | -12.8% | 24.6
CC1NC(=O)c2cc3ccccc3cc2-n2c1nc1ccc(F)cc1c2=O (configuration not stated) | . | . | 3.9 | ? | -2.6% | . | .
COc1ccc(Cc2cc(NCc3ccccc3)c3ncn(C(C)C)c3c2)cc1 | . | -11.5% | ? | -35.1% | -6.2% | . | .
CCc1ccc(NC(=O)CCn2c(=O)oc3ccccc32)cc1 | 0.3 | -2.5% | -2.6 | ? | -2.2% | ? | -17.5
CCc1ccc2oc(C(=O)Nc3cccnc3)c(C)c2c1 | -5.9 | 9.4% | . | -100.7% | -16.1% | 3.8% | -8.6
Oc1ccccc1C1=Nc2nc3ccccc3n2C(c2ccccc2)C1 (configuration not stated) | ? | -14.6% | -4.0 | 1.5% | -7.3% | -23.3% | -7.8
Cc1ccc(NC(=O)COc2coc(CN3CCc4ccccc43)cc2=O)cc1Cl | . | 1.7% | -1.1 | -41.1%[15.4 µM] | . | . | -15.1
CCOC(=O)c1c(NC(=O)CN2C(=O)NC3(CCC(C)CC3)C2=O)sc(C(=O)N(C)C)c1C (configuration not stated) | . | -15.3% | 2.3 | 2.7% | ? | . | 4.2
Cn1c(SCc2nc(-c3ccc(Br)cc3)no2)nnc1-c1ccco1 | 3.9 | -15.9% | -6.7 | -58.3%[inhibitor] | 0.0% | -4.5% | 6.7
CSc1ccc(C(=O)C2CCCN(C(=O)Cc3nonc3C)C2)cc1 (configuration not stated) | 5.2 | -0.7% | 0.3 | 29.1% | . | 1.6% | 0.4
CCOc1cc(/C=N\NC(=O)c2ccc(NC(=O)C(C)(C)C)cc2)ccc1OC(=O)c1cccc(C)c1 | 2.8 | -13.6% | -1.3 | 5.9% | -14.8% | 13.1% | 5.6
Cc1ccc(C(=O)N2CCC(C(=O)NCc3ccco3)CC2)cc1 | . | 8.3% | -1.6 | -7.0% | . | 12.0% | 4.7
O=C(O)c1cccc(-n2cccc2/C=C/[N+](=O)[O-])c1 | ? | 12.1% | 5.8 | -20.9% | -1.6% | 31.6µM* | 10.6
CCn1nnnc1SCC(=O)Nc1ccc(OCc2ccccc2)cc1 | -0.2 | 11.1% | 2.9 | -5.8% | 1.0% | 11.7% | 14.4
Cc1nc(-c2ccc(F)cc2)c(CC(=O)N(C)CC(=O)Nc2ccc(Cl)c(C(F)(F)F)c2)s1 | . | 31.6µM* | -1.1 | 19.9% | -13.5% | . | .
CCC(=O)Nc1sc(Cc2ccccc2)c(C)c1C(N)=O | 5.4 | 3.4% | -1.5 | 14.0%[15.4 µM] | . | ? | -10.0
COc1cccc(/C=C2/C(=O)NN(c3ccc(Br)cc3)C2=O)c1O | -0.9 | 1.9% | . | -23.5% | -0.3% | -20.8% | -3.3
O=C(OC1CCCCC1=O)c1cc(S(=O)(=O)N2CCOCC2)ccc1F (configuration not stated) | . | 4.1% | 10.8 | -20.1% | 0.6% | 4.4% | 8.6
CC(=O)Nc1ccc(S(=O)(=O)N2CCC(NC(=O)C(Cc3cccn3C)NC(C)=O)CC2)cc1 (configuration not stated) | 3.6 | 13.0% | -4.1 | -36.4%[inhibitor] | -2.7% | 19.8% | -5.4
O=C(CCn1c2c(c3ccccc31)CCCC2)NNC(=O)c1ccc(Cl)c([N+](=O)[O-])c1 | 4.1 | -21.3% | -10.2 | 17.1% | -2.9% | 7.6% | 6.2
O=[N+]([O-])c1ccc(N2CCN(C(=S)Nc3cccc(F)c3)CC2)cc1 | 1.0 | ? | . | -45.9%[inhibitor] | -0.6% | 9.8% | -1.5
COc1ccc(C2CC(c3cccs3)=NN2C(=O)CCC(=O)O)cc1 (configuration not stated) | -0.1 | -9.7% | . | ? | ? | 29.7% | 3.2
CCOC(=O)C1CCN(C(=O)/C=C/c2cc(OC)c(OC)c(OC)c2)CC1 | 4.8 | 21.9% | 2.9 | -5.0% | -29.1% | 13.0% | 15.2
COc1cccc(CCNC(=O)CC2C(=O)NCCN2Cc2ccc(C)o2)c1 (configuration not stated) | . | 13.5% | -9.1 | -1.6% | -6.6% | 3.0% | -0.3
O=C(c1cccc2ccccc12)N1CCN(CC2CC=CCC2)CC1 (configuration not stated) | -0.5 | 4.3% | 5.0 | -21.1% | -1.0% | ? | -0.8

Later entries:
SMILES | Menin MLL FP FL | gsp antagonist | CtBP-E1A inh | gsp agonist | ClpP mod | Sfp PPTase inh | TRPV1 potentiator
CCN1CCCC1CNC(=O)CSc1cc(=O)n(C)c2cc(Cl)ccc12 (configuration not stated) | -1.0 | -2.1% | -6.3 | ? | ? | 17.0% | -4.1
CO/N=C/NC(=O)c1ccc([N+](=O)[O-])c(CS(=O)(=O)c2ccc(Cl)cc2)c1 | 2.0 | 0.4% | -4.1 | 4.5% | 3.5% | 9.7% | 3.2
COc1ccc(S(=O)(=O)Nc2cccc3c2O[C@H](CN(C)S(=O)(=O)c2ccc(Cl)cc2)[C@H](C)CN([C@H](C)CO)C3=O)cc1 | . | ? | 2.1 | 0.5% | -4.4% | . | .
Cc1cc(NC(=O)CCC2CCCC2)no1 | -1.7 | 20.6% | 5.1 | ? | 0.6% | 5.4% | 0.2
Cc1ccc(OCC(O)CN2CCN(CCO)CC2)c(C)c1 (configuration not stated) | -1.2 | 9.4% | 11.6 | 0.3% | 0.0% | -10.6% | 11.8
CC(NC(=O)c1ccccc1)C(=O)OCC(=O)c1ccc(Br)cc1 (configuration not stated) | -0.4 | -3.1% | 1.8 | -11.4% | 1.3% | 12.8% | -10.6
C1CCC(OCCN2CCN(CCOC3CCCCC3)CC2)CC1 | 2.1 | 4.2% | 7.1 | 17.8% | -1.7% | 1.8% | 18.9
CCOC(=O)Nc1ccc2c3c(cccc13)-c1ccccc1-2 | . | -2.1% | 44.8 | 12.5%[15.4 µM] | -1.9% | . | .
COC(=O)c1c(NC(=O)CC2SC(N)=NC2=O)sc2c1CCC(C)C2 (configuration not stated) | 1.7 | -13.6% | -4.8 | 11.5%[15.4 µM] | -2.6% | -2.6% | -5.2
O=C(O)c1ccc(NCc2nc3cc4ccccc4cc3[nH]2)cc1 | . | 0.3% | -5.3 | ? | -10.3% | . | .
